Screening results: PubChem BioAssay, several laboratories
Env fusion inh – inhibitors of HIV-1 Env-driven cell-cell fusion, primary screen, HeLa-JRFL effector, CEM21 target cells, luciferase. inhibition, % at 12.3 µM. hit rate 1.1% among 360,000. AID 651610, 2012;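 active means mean replicate inhibition score of at least 50 and every replicate individually at or above 50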;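 further: 0% = plate neutral controls and 100% = maraviroc near 300 nM; one replicate is shown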
CSC inhib – cancer stem cell viability inhibitors, primary screen, luminescence; hit rate 1.1% among 300,000; cancer stem cell-like cells viability; inhibition, % at 7.5 µM;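 active means mean at 75% or more and at least half the replicates too; tested in HMLE shEcad cells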;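 further: 0% = median of negative and 100% = median of positive control wells; the first replicate is given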
Yeast UUG start – modulators of yeast start codon fidelity, primary screen, whole organism, S. cerevisiae, single point, plate reader. S. cerevisiae UUG-firefly luciferase reporter, luminescence/redox ratio. hit rate 0.13% among 350,000. AID 602363, 2012. activity score, % at 18.7 µM;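 active means replicate mean at a twofold rise or more, about +100% in these data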;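 further: firefly luciferase made from a UUG start codon reports start codon fidelity; reporter light over untreated wells divided by growth signal over untreated wells; some hits fall short of that in this replicate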
Rce1 inhib – yeast Rce1p protease inhibitors, primary screen, biochemical, fluorescence, cell-free homogeneous | CAAX prenyl protease 2 (Saccharomyces cerevisiae (strain ATCC 204508 / S288c)), Q03530 | yeast membranes, quenched prenylated peptide cleavage fluorescence | calls only | hit rate 0.27% among 290,000 | AID 2563, 2010;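 active means fall in fluorescence gain of 50% or more versus controls, with final raw signal at or below 3038400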;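 further: plate controls were neutral control wells for no effect and wells lacking membranes for full effect; tested at 10 µM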
Target sequence (Q03530 whole entry, looked up): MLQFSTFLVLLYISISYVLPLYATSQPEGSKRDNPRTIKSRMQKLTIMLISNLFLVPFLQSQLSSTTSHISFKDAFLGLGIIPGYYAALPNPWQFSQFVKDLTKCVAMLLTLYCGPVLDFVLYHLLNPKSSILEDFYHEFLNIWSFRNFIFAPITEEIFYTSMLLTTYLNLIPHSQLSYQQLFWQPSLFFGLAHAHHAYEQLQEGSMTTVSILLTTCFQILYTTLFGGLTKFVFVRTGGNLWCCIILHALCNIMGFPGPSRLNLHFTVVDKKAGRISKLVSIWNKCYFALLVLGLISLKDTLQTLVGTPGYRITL
MT1-MMP act inh – blockers of MT1-MMP proenzyme processing, primary screen, HT1080 RFP-PRO-GFP cells, GFP/RFP fluorescence; GFP/RFP ratio change, % at 20 µM; AID 651647, 2012; GFP/RFP ratio fluorescence, overnight; percent of plate control window, DMSO zero; Matrix metalloproteinase-14 (Homo sapiens), P50281; hit rate 0.061% among 360,000;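 active means GFP/RFP ratio change of at least 30% with cell ATP level not reduced by more than half and red fluorescence within 50% of control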; further: strong numbers were not always called active
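Material – HT1080 RFP-PRO-GFP cells · Control set – DMSO wells and RFP-L50D-GFP cells · Incubation – overnight cell settling, then overnight compound exposure, 37 °C, 5% CO2 · Compound dosing – single-point 20 µM compound, 1% DMSO · Read-out – GFP/RFP fluorescence ratio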
eIF4H inh – human eIF4H binding inhibitors, primary screen, translation initiation inhibitor project, biochemical, uHTS, fluorescence polarization; Eukaryotic translation initiation factor 4H (Homo sapiens), Q15056; eIF4H fluorescence polarization binding assay; inhibition, % at 35 µM; hit rate 0.94% among 290,000;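 active means 50% or more with normal probe brightness, or confirmed in later tests; about a fifth of its hits are not listed in these tables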;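 further: calls also rest on retests at 20 µM and on dose response follow-up; 0% = protein and probe with vehicle and 100% = probe without protein; strong numbers were not always called active; many hits fall short of the cut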
PABP polyA inh – PABP poly(A) RNA binding inhibitors, primary screen, biochemical, fluorescence polarization, uHTS. hit rate 1% among 290,000. Polyadenylate-binding protein 1 (Homo sapiens), P11940. inhibition, % at 35 µM;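 active means 50% or more with normal probe brightness, or confirmed in later tests; about a fifth of its hits are not listed in these tables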;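 further: calls also rest on retests at 20 µM and on dose response follow-up; controls were probe without protein and protein plus probe with vehicle; some compounds called inactive have numbers as strong as hits; many hits fall short of the cut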
eIF4H inh retest – second read-out of eIF4H inh, no call of its own (marks repeat the call); inhibition, %; compound at 20 µM; confirmation average;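 mean of two retest wells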
PABP polyA inh retest – also measured in PABP polyA inh; calls as there; inhibition, %; compound at 20 µM; confirmation repeats;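 mean of two retest wells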
MT1-MMP act inh RFP – further read-out of MT1-MMP act inh, marked with its call; RFP signal change, %; measured here: RFP expression control read;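 0 = vehicle wells; hits needed this value within 50% of zero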
* marks the source's active call; other numbers are inactive results.

Screening COc1cc(S(=O)(=O)N2CCCN(C)CC2)ccc1NC(C)=O returned Env fusion inh 5.0, CSC inhib -5.0, Yeast UUG start -5.6, Rce1 inhib inactive, MT1-MMP act inh -2.6, eIF4H inh 1.5, PABP polyA inh 1.6 and MT1-MMP act inh RFP 2.6.
For Cc1ccc(C(=O)Nc2ccc3c(c2)ncn3C)cc1 the results were Env fusion inh -124.8, Yeast UUG start -35.7, Rce1 inhib inactive, MT1-MMP act inh 1.2, eIF4H inh -0.3, PABP polyA inh -2.2 and MT1-MMP act inh RFP -0.7.
Screening Nc1nnc(CC(=O)N/N=C/c2ccccc2OCc2ccccc2F)s1 returned Env fusion inh 21.1, CSC inhib 11.4, Rce1 inhib inactive, MT1-MMP act inh 0.1, eIF4H inh -3.1, PABP polyA inh 3.8 and MT1-MMP act inh RFP -4.0.
For O=C(NCC1CCCO1)c1cc(S(=O)(=O)N2CCOCC2)ccc1Cl (stereo unspecified) the results were Env fusion inh 3.7, CSC inhib -8.2, Yeast UUG start -11.4, Rce1 inhib inactive, MT1-MMP act inh -3.1, eIF4H inh -11.4, PABP polyA inh 6.8 and MT1-MMP act inh RFP 0.1.
Screening CSc1nc(Cc2ccccc2)nc2ccccc12 returned Env fusion inh 16.7, CSC inhib 29.9, MT1-MMP act inh -1.2, eIF4H inh -7.7, PABP polyA inh -2.0 and MT1-MMP act inh RFP 4.5.
COC(=O)CCN1CCC(C(N)=O)CC1 was read as Env fusion inh 50.1, CSC inhib 14.3, Rce1 inhib inactive, MT1-MMP act inh 0.2, eIF4H inh 3.3, PABP polyA inh -5.0 and MT1-MMP act inh RFP 3.4.
For CC[C@]12c3[nH]c4ccc(OC)cc4c3CCN1C(=O)C(CC(=O)NC/C=C(\C)CCC=C(C)C)C[C@@H]2C(=O)N1CCN(C(=O)C2CC2)CC1 (stereo partly specified) the results were Env fusion inh 10.6, Yeast UUG start 1.0, MT1-MMP act inh -4.1 and MT1-MMP act inh RFP -5.4.
For COc1ccc(OC)c(CCNC(=O)Cc2ccc(NC(=O)C3=C(C)OCCS3)cc2)c1 the results were Env fusion inh -1.1, Yeast UUG start -0.7, MT1-MMP act inh 4.6 and MT1-MMP act inh RFP -1.0.
For CC(NC(=O)CN1C(=O)NC2(CCCCCC2)C1=O)c1ccccc1Cl (stereo unspecified) the results were Env fusion inh -18.6, CSC inhib 10.8, Yeast UUG start -15.3, MT1-MMP act inh 0.9 and MT1-MMP act inh RFP -0.1.
Cc1cc(C(=O)COC(=O)c2ccc([N+](=O)[O-])o2)c(C)n1CC1CCCO1 (stereo unspecified) was read as Env fusion inh -14.0, CSC inhib -3.9, Yeast UUG start -37.8, MT1-MMP act inh 2.4, eIF4H inh 6.1, PABP polyA inh -9.4 and MT1-MMP act inh RFP -0.4.
Screening COc1ccccc1CNC(=O)c1c(O)c2cc(OC)c(OC)cc2[nH]c1=O returned CSC inhib 10.8, Yeast UUG start -15.7, Rce1 inhib inactive, MT1-MMP act inh -1.1, eIF4H inh -5.8, PABP polyA inh 6.5 and MT1-MMP act inh RFP 0.3.
`COc1cc(O)cc2occ(-c3ccc(O)cc3)c(=O)c12` gave CSC inhib -3.5, Yeast UUG start -18.3, Rce1 inhib inactive, MT1-MMP act inh -1.8, eIF4H inh -4.8, PABP polyA inh 5.3 and MT1-MMP act inh RFP 2.3.
Screening COc1ccc(C(=O)Nc2ncc3c(n2)CC(C)CC3=O)cc1 (stereo unspecified) returned Env fusion inh -1.0, CSC inhib -2.8, Yeast UUG start -13.9, Rce1 inhib inactive, MT1-MMP act inh -0.3, eIF4H inh -0.4, PABP polyA inh 6.8 and MT1-MMP act inh RFP 3.6.
For O=C(c1ccco1)N1CCN(C2c3ccccc3-c3ccccc32)CC1 the results were Env fusion inh 19.4, CSC inhib -7.4, Yeast UUG start -14.6, Rce1 inhib inactive, MT1-MMP act inh -3.8, eIF4H inh 8.2, PABP polyA inh 1.1 and MT1-MMP act inh RFP -2.4.
O=C1NC(=O)C2(CCC(C(=O)O)C2)N1 (stereo unspecified) was read as Yeast UUG start -7.2, Rce1 inhib inactive, MT1-MMP act inh 0.1, eIF4H inh 5.1, PABP polyA inh 3.5 and MT1-MMP act inh RFP 2.0.
`Cc1nnc(SCC(=O)NC2CCCCC2)n1-c1ccccc1` gave Env fusion inh 20.7, Yeast UUG start 0.2, MT1-MMP act inh 3.1 and MT1-MMP act inh RFP 6.4.
`Cc1ccc(SCC(=O)Nc2cccnc2)cc1` gave CSC inhib -4.9, Rce1 inhib inactive, MT1-MMP act inh 1.3 and MT1-MMP act inh RFP 0.2.
Cc1ccc2cc(CN(Cc3cccs3)Cc3nnnn3CC3CCCO3)c(=O)[nH]c2c1 (stereo unspecified) was read as CSC inhib -8.5, Yeast UUG start 1.2, Rce1 inhib inactive, MT1-MMP act inh -0.9, eIF4H inh -2.2, PABP polyA inh -20.1 and MT1-MMP act inh RFP -2.7.
Screening COC(=O)CN(C#N)c1nc(N(C)C)nc(N(C)C)n1 returned Env fusion inh -2.1, CSC inhib -7.4, Rce1 inhib inactive, MT1-MMP act inh 8.2, eIF4H inh -1.8, PABP polyA inh -3.8 and MT1-MMP act inh RFP 3.2.
For Cc1cc(CN(C)C(=O)CC2C(=O)NCCN2CC(c2ccccc2)c2ccccc2)on1 (stereo unspecified) the results were Env fusion inh -0.9, CSC inhib -14.7, Rce1 inhib inactive, eIF4H inh 15.4 and PABP polyA inh 15.7.

Two neighbouring records already listed, quoted:
Screening COC(=O)CN(C#N)c1nc(N(C)C)nc(N(C)C)n1 returned Env fusion inh -2.1, CSC inhib -7.4, Rce1 inhib inactive, MT1-MMP act inh 8.2, eIF4H inh -1.8, PABP polyA inh -3.8 and MT1-MMP act inh RFP 3.2.
For Cc1cc(CN(C)C(=O)CC2C(=O)NCCN2CC(c2ccccc2)c2ccccc2)on1 (stereo unspecified) the results were Env fusion inh -0.9, CSC inhib -14.7, Rce1 inhib inactive, eIF4H inh 15.4 and PABP polyA inh 15.7.

Following part
O=S(=O)(NC1CCN(S(=O)(=O)c2c(F)cccc2F)CC1)c1ccc2c(c1)OCCO2 was read as Env fusion inh -4.2, Yeast UUG start 0.4, MT1-MMP act inh 5.3 and MT1-MMP act inh RFP -9.5.
`CCCCCCSc1nsc(NC(=O)CC(C)C)n1` gave Env fusion inh -34.5, CSC inhib 91.0*, Yeast UUG start -10.9, Rce1 inhib inactive, MT1-MMP act inh -19.7, eIF4H inh -1.2, PABP polyA inh 57.6, eIF4H inh retest 5.9, PABP polyA inh retest -10.1 and MT1-MMP act inh RFP -16.2.
For COc1ccc(-n2nc(C(=O)NCC(=O)NCC3COc4ccccc4O3)c3ccccc3c2=O)cc1OC (stereo unspecified) the results were Env fusion inh 1.9, CSC inhib -8.1, Rce1 inhib inactive, MT1-MMP act inh -2.6, eIF4H inh -6.4, PABP polyA inh 16.0 and MT1-MMP act inh RFP -1.5.
Screening CC1CN(CC(=O)Nc2cccc(C(=O)Nc3cccc(C(F)(F)F)c3)c2)CC(C)O1 (stereo unspecified) returned Yeast UUG start -7.8, Rce1 inhib inactive, MT1-MMP act inh -2.3, eIF4H inh -12.8, PABP polyA inh -8.4 and MT1-MMP act inh RFP -4.3.
For Cn1nc(C(=O)Nc2ccccc2)c2c1-c1ccccc1S(=O)(=O)C2 the results were Env fusion inh -13.4, CSC inhib -0.7, Yeast UUG start -5.5, Rce1 inhib inactive, MT1-MMP act inh 2.5, eIF4H inh -1.6, PABP polyA inh -0.5 and MT1-MMP act inh RFP 4.6.
For COc1ccc2c(c1OC)C(=O)N1c3ccccc3SC21 (stereo unspecified) the results were CSC inhib 8.8, Yeast UUG start -3.5, Rce1 inhib inactive, MT1-MMP act inh 0.2, eIF4H inh 9.2, PABP polyA inh 1.2 and MT1-MMP act inh RFP 2.6.
`O=C(c1ccc(CN2CCOCC2)cc1)N1CCN(Cc2ccccc2)CC1` gave Env fusion inh -27.3, CSC inhib -8.2, Yeast UUG start -6.8, Rce1 inhib inactive, MT1-MMP act inh -3.2, eIF4H inh -2.1, PABP polyA inh -4.4 and MT1-MMP act inh RFP -4.7.
For CCC(C)c1ccc(S(=O)(=O)N2CC(=O)Nc3ccccc32)cc1 (stereo unspecified) the results were CSC inhib -6.9, Rce1 inhib inactive, MT1-MMP act inh -0.2, eIF4H inh 4.3, PABP polyA inh 10.4 and MT1-MMP act inh RFP -2.2.
For CCn1c2ccccc2c2cc(NC(=O)CSc3nccc(=O)[nH]3)ccc21 the results were Env fusion inh 4.6, CSC inhib -4.8, Yeast UUG start -8.4, Rce1 inhib inactive, MT1-MMP act inh -3.6, eIF4H inh -0.6, PABP polyA inh -2.7 and MT1-MMP act inh RFP -3.3.
Screening O=C(CSc1n[nH]c(-c2ccc(S(=O)(=O)NC3CCCCC3)cc2)n1)N1CCCC1 returned CSC inhib 3.4, Yeast UUG start -14.0, Rce1 inhib inactive, MT1-MMP act inh -2.6, eIF4H inh -4.6, PABP polyA inh 5.6 and MT1-MMP act inh RFP -8.7.
For Nc1nc(N)nc(-c2ccccn2)n1 the results were CSC inhib -9.8, Yeast UUG start -12.2, Rce1 inhib inactive, MT1-MMP act inh 0.0, eIF4H inh 10.3, PABP polyA inh -4.2 and MT1-MMP act inh RFP -0.7.
Screening CC(=O)c1ccc(OCCCC(=O)N2CCN(S(=O)(=O)c3cc(C)ccc3C)CC2)cc1 returned Env fusion inh 7.7, CSC inhib -11.1, Yeast UUG start 3.7, Rce1 inhib inactive, MT1-MMP act inh -0.8 and MT1-MMP act inh RFP -6.5.
Cc1ccc(S(=O)(=O)c2ccc(-n3nc(C)cc3N)cc2)cc1 was read as Env fusion inh 6.8, CSC inhib -3.3, Rce1 inhib inactive, MT1-MMP act inh 1.4, eIF4H inh 3.6, PABP polyA inh 13.3 and MT1-MMP act inh RFP -1.6.
Screening O=C(NCC1CCCO1)c1cc2ccccc2nc1Cl (stereo unspecified) returned Env fusion inh -17.9, CSC inhib -12.5, Rce1 inhib inactive, MT1-MMP act inh -3.1, eIF4H inh -4.9, PABP polyA inh -5.7 and MT1-MMP act inh RFP 1.4.
For CCCCCCCCCC(=O)Nc1cccnc1 the results were CSC inhib 0.3, Rce1 inhib inactive, eIF4H inh -6.8 and PABP polyA inh 5.4.
COc1ccc(-c2cc(C(F)F)n3ncc(C(=O)Nc4ccc(C(=O)N5CCOCC5)cc4)c3n2)cc1 was read as Env fusion inh 5.7, CSC inhib 4.5, Rce1 inhib inactive, MT1-MMP act inh 2.0, eIF4H inh -4.5, PABP polyA inh -8.2 and MT1-MMP act inh RFP -4.2.

By substructure, the entries above with a furan ring, fused or not
Cc1cc(C(=O)COC(=O)c2ccc([N+](=O)[O-])o2)c(C)n1CC1CCCO1 (stereo unspecified) was read as Env fusion inh -14.0, CSC inhib -3.9, Yeast UUG start -37.8, MT1-MMP act inh 2.4, eIF4H inh 6.1, PABP polyA inh -9.4 and MT1-MMP act inh RFP -0.4.
For O=C(c1ccco1)N1CCN(C2c3ccccc3-c3ccccc32)CC1 the results were Env fusion inh 19.4, CSC inhib -7.4, Yeast UUG start -14.6, Rce1 inhib inactive, MT1-MMP act inh -3.8, eIF4H inh 8.2, PABP polyA inh 1.1 and MT1-MMP act inh RFP -2.4.
